Ecoli rRNA inh = inhibits bacterial ribosomal RNA function over humanized ribosomes | GFP signal change (wild-type ribosome), % (no concentration beside the values) | 1.6% of 350,000 active | E. coli WT GFP vs humanized-ribosome RFP mutants, fluorescence, 24 h; stronger effect = lower value; DMSO median 0, no signal -100 | AID 720706;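 active = significant combined selectivity score with lowered wild-type GFP, culture density cut under 30%, mutant RFP and density less affected; inactive = any of these conditions unmet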; note: one replicate is shown; some compounds called inactive have numbers as strong as hits
Beta cell apopt = blocks beta cell apoptosis; INS-1E cytokine-induced death, ATP luminescence, 48 h; percent of positive-control rescue, neutral wells zero; protection from apoptosis, % (concentration not given with the values); 0.8% of 300,000 active; AID 435005;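 active = all replicates at 75% or more, or half of them and the mean; inconclusive = half reach 75% but not the mean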;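 note: 0% = cytokine-treated negative control wells and 100% = positive control rescue; higher means more ATP so stronger rescue from cytokine killing; wells of about 40 µL received 100 nL stock; the first replicate is given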
Calb FLC = C. albicans growth modulation with fluconazole; C. albicans CaCi-2 (fluconazole-resistant clinical isolate) + fluconazole, Alamar Blue growth, 48 h; growth inhibition, % (no concentration beside the values); 0.57% of 300,000 active; AID 1979;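 active = most replicates above 75%; inconclusive = exactly half above 75%; inactive = most below 75%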;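 note: all wells also contain fluconazole at 8 µg/ml as a sub-toxic cotreatment; 0% = median of DMSO wells and 100% = median of geldanamycin control wells; wells of about 8 µL received 7.5 nL stock; the first replicate is given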
T cruzi inh = blocks replication of Trypanosoma cruzi; T. cruzi beta-gal in NIH3T3, luminescence, 90 h; inhibition, % (test concentration not listed); 1.4% of 300,000 active; AID 1885;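 active = mean inhibition across valid replicates above about 55%, limit read from the data; inconclusive = mean below that limit but half or more replicates reach it; inactive = mean below it, under half of replicates reach it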;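 note: signal also drops with host cell toxicity which is not excluded here; 0% = plate median of DMSO wells and 100% = zero luminescence signal; higher percent means less beta-gal luminescence so fewer parasites; stock transfer was 50 nL into about 50 µL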
A1 inh = inhibitors of the anti-apoptotic protein A1, read as caspase activation. MEF A1-2A-BIM cells, Caspase-Glo 3/7 luminescence, 3 h; percent of clofoctol response, vehicle zero. caspase activation, % (concentration not given with the values). 0.066% of 330,000 active. AID 2462;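 active = over half of replicate activation scores above 10%, or exactly half above 10 with the replicate mean above 10; inconclusive = replicate mean below 10 yet half the replicates above 10; inactive = over half of replicates below 10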;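 note: wells of about 30 µL received 50 nL stock; many hits fall short of the cut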
AF4-AF9 inh = inhibitors of human MLL-AF4/AF9 interaction; P42568; AlphaScreen, biotin-AF4 peptide binding to FLAG-AF9; inhibition, % at 10 µM; 0.47% of 350,000 active;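 active = every replicate reaching a set inhibition limit, whatever the replicate mean, cut at about 25% in these data; inconclusive = mean inhibition reaches that limit but some replicates miss it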;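 note: 0% = plate neutral control median and 100% = total signal loss; the record names both 10 and 1 µM as test concentration; the first replicate is given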
Target sequence (P42568 whole entry, looked up): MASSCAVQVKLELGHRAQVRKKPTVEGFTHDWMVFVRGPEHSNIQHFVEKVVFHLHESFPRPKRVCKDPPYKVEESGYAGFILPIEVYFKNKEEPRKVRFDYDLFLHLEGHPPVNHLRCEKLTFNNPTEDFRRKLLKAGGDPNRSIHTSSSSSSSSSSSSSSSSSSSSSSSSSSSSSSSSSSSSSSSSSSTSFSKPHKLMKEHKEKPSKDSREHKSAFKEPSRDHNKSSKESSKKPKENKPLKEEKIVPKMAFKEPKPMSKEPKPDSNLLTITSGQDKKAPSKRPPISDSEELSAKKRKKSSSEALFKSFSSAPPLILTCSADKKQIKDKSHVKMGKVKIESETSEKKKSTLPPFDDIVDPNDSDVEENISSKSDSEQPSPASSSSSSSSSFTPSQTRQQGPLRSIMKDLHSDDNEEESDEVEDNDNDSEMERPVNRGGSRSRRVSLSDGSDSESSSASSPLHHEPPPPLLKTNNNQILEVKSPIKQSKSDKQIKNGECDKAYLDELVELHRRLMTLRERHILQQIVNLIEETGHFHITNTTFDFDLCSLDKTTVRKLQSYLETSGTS
Vif TR-FRET = HIV-1 Vif–A3G interaction blockers – biochemical, TR-FRET, GST-Vif 1-94, biotin-A3G peptide, dose response retest, primary screen (AID 1117319) | TR-FRET GST-Vif / biotin-A3G peptide binding; higher % means a stronger effect; test concentration not given here; strong numbers were not always called active | inhibition, %; hits with a dose series show IC50 in µM | 0.57% of 260,000 active;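 active = above the screen mean plus three standard deviations and confirmed in dose response; inconclusive = results disagree or hit not tested in dose response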;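 note: Vif residues 1-94 fused to GST binding biotinylated APOBEC3G peptide 110-148; 0% = full assay without inhibitor and 100% = GST in place of GST-Vif; retest series ran down from 100 µM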
RanGTP-Impb inh = disruptors of Ran-importin-beta complex formation – biochemical, FRET, CFP-Ran, YFP-importin-beta, homogeneous, primary screen; AID 2216; cell-free CFP-Ran/YFP-importin-beta FRET ratio; 1.1% of 300,000 active; inhibition, % (concentration not given with the values);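 active = most replicates above 15%; inconclusive = exactly half above 15%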;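 note: 0% = DMSO wells and 100% = Ran loaded with GDP instead of GTP; wells of about 40 µL received 100 nL stock; the first replicate is given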
Ecoli rRNA inh OD600 = further read-out of Ecoli rRNA inh, marked with its call; OD600 change, %; measured here: OD600 growth;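 optical density of the mix in the first replicate; 0 = DMSO median and -100 = no signal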
Ecoli rRNA inh RFP = second read-out of Ecoli rRNA inh, no call of its own (marks repeat the call); RFP signal change, %; measured here: RFP humanized mutant strains;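 first replicate; 0 = DMSO median and -100 = no signal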
Numbers without * were called inactive; ? = inconclusive; . = no result given. A portion of the library; rates above refer to the full screens.

Compound	Ecoli rRNA inh RFP	A1 inh	Calb FLC	Ecoli rRNA inh OD600	Vif TR-FRET	Ecoli rRNA inh	RanGTP-Impb inh	AF4-AF9 inh	Beta cell apopt	T cruzi inh
CCC(C)(C)C1CCc2[nH]nc(C(=O)O)c2C1 (stereo not given)	-6.5	1.1	.	-39	.	-21	.	-3.1	2	.
COC(=O)c1cn(S(=O)(=O)c2ccccc2)c2ccccc12	0.0	0.9	-11	-22	-10%	-4	-2.1	-0.9	6	10
O=C(NCC(c1cccs1)N1CCOCC1)c1cc([N+](=O)[O-])cc([N+](=O)[O-])c1 (stereo not given)	9.1	-0.5	-3	-15	20%	-17	6.1	5.9	-3	73*
COc1ccc(-n2c(C)nc3cc(C(=O)N4CCOCC4)ccc32)cc1	.	0.7	-20	.	8%	.	-12	.	-4	-12
CC(C)COC(=O)c1cccc2c1-c1ccccc1/C2=N\O	.	0.9	-6	.	-6%	.	-5.2	.	-2	6
CN(C)C(=O)c1snnc1-c1ccccc1	.	0.2	1	.	4%	.	4.0	.	-9	-11
O=c1c2ccccc2sn1-c1cc(S(=O)(=O)N2CCOCC2)ccc1N1CCCC1	.	-1.5	3	.	26%	.	-3.3	.	-14	47
COc1ccc(S(=O)(=O)N2Cc3ccccc3CC2C(=O)Nc2nccs2)cc1 (stereo not given)	.	1.2	6	.	4%	.	-4.2	.	1	-5
COc1ccc(C2(CNC(=O)c3ccc(C)cc3)CCOCC2)cc1	1.5	0.7	-5	-8	13%	-1	0.7	-1.7	1	11
Cc1cc(N2CCCC2)ccc1/C=C1/C(=O)N(C)C(=S)N1C	14	0.5	30	3	4%	-3	1.2	3.7	8	29
Cc1cccc2cc(CN(CCCO)C(=O)Nc3ccccc3Cl)c(=O)[nH]c12	.	1.1	-5	.	3%	.	3.6	.	-4	0
CCOc1ccc(S(=O)(=O)N2CCN(C(=O)C3CCC3)CC2)cc1	-1.1	-1.1	-2	0	7%	1	-0.7	-4.4	-9	6
O=C(CCNC(=O)c1ccccc1Cl)Nc1cc(C(F)(F)F)ccc1N1CCCC1	2.3	0.5	2	14	.	10	3.5	0.6	-3	12
O=C1NC(Nc2nccs2)(C(F)(F)F)C(=O)N1CCc1ccccc1 (stereo not given)	.	0.0	.	.	-2%	.	2.5	.	-3	4
Clc1ccc2noc(-c3ccccc3)c2c1	1.6	0.7	-3	16	7%	22	3.5	-1.1	4	-5
COC(=O)CCC(=O)OC1(C)C(=O)C2=CN(c3ccccc3)C(c3ccc(OC)cc3)=CC2=C(Br)C1=O (stereo not given)	5.6	-0.7	22	3	.	-5	9.0	3.6	-5	12
COc1ccc(/C=C(\C#N)C(=O)Nc2cccnc2)cc1	.	-0.4	-8	.	.	.	2.0	3.5	.	-16
Cc1cc(=O)n2nc(N3CCCC(C(=O)NC4CCC(C)CC4)C3)sc2n1 (stereo not given)	0.9	0.4	-9	11	36%	10	1.1	1.4	5	2
C=CCn1c(C(CCCC)CC(O)COCCC)n[nH]c1=S (stereo not given)	2.9	1.8	-12	9	3%	7	-0.9	-4.5	-7	-5
CC(=O)NCCn1c(SCc2cc(=O)n3cc(Cl)ccc3n2)nc2ccccc2c1=O	-0.5	0.9	25	8	16%	-1	0.3	.	-1	-9
CCC/C(O)=C1\C(=O)CCCC1=NCCc1ccc(OCC)c(OCC)c1	-1.9	-0.2	30	-10	5%	-9	1.3	1.0	2	6
CCc1ccc(N(CC(=O)N2CCN(Cc3ccccc3)CC2)S(C)(=O)=O)cc1	-1.4	-2.0	-6	0	.	-1	6.8	0.2	-7	-7
CCCC(C)n1[nH]c(=O)c2c(C)cc(C)nc21 (stereo not given)	.	0.2	?	.	17%	.	1.2	.	.	11
CC(OC(=O)CC1Sc2ccccc2NC1=O)C(=O)NC1CCCC1 (stereo not given)	6.7	0.4	-7	2	.	15	?	-3.2	0	-14
O=C(Cn1ncc2c(=O)oc3ccccc3c21)N1CCN(C(=O)c2ccco2)CC1	.	0.0	-2	.	-6%	.	3.2	.	-2	-7
CCc1ccc(-n2c(SCC(=O)NC3CCS(=O)(=O)C3)nc3ccccc3c2=O)cc1 (stereo not given)	-0.9	1.0	.	-8	-6%	-7	.	0.3	3	.
CSc1nnc(C)c(/C=C/Nc2ccc(C)cc2)n1	.	-0.5	22	.	7%	.	-31	.	.	30
CCN(CC(=O)NC)S(=O)(=O)c1ccc(Br)cc1	.	1.0	-4	.	0%	.	3.5	.	-1	-12
CS(=O)(=O)N1CCN(C(=O)c2cc3ccccc3oc2=O)CC1	.	0.3	-11	.	6%	.	?	2.7	-7	-2
COc1cc(CC(=O)Nc2ccc(S(=O)(=O)N(C)C)cc2)cc(OC)c1OC	-1.1	0.0	.	3	1%	9	.	.	3	.

Look-ups from above.
For Calb FLC, COc1ccc(-n2c(C)nc3cc(C(=O)N4CCOCC4)ccc32)cc1 shows -20
For A1 inh, CCC(C)(C)C1CCc2[nH]nc(C(=O)O)c2C1 (stereo not given) shows 1.1
For Calb FLC, CS(=O)(=O)N1CCN(C(=O)c2cc3ccccc3oc2=O)CC1 shows -11
For Calb FLC, COc1ccc(/C=C(\C#N)C(=O)Nc2cccnc2)cc1 shows -8
For RanGTP-Impb inh, CSc1nnc(C)c(/C=C/Nc2ccc(C)cc2)n1 shows -31

Additional entries.
Compound	Ecoli rRNA inh RFP	A1 inh	Calb FLC	Ecoli rRNA inh OD600	Vif TR-FRET	Ecoli rRNA inh	RanGTP-Impb inh	AF4-AF9 inh	Beta cell apopt	T cruzi inh
Cc1ccc(S(=O)(=O)N(C)C)cc1NC(=S)NCc1ccco1	1.9	-0.1	27	6	-8%	4	-1.8	1.2	2	2
COc1cc(/C=C2\COC/C(=C\c3cc(OC)c(OC)c(OC)c3)C2=O)cc(OC)c1OC	21	.	12	7	.	-9	-4.4	14	.	11
O=C(CSc1c[nH]c2ccccc12)N1CCCc2ccccc21	-25	0.4	5	-78	6%	-28	3.1	9.6	5	-2
O=c1c2ccccc2nnn1COc1cccc2ccccc12	-2.2	-1.3	14	-32	7%	-24	-0.4	10	-4	-3
CCC(C(=O)Nc1cc(Cl)ccc1OC)c1ccccc1 (stereo not given)	.	1.2	-9	.	-5%	.	-0.6	-5.1	-1	10
Cc1ccc(N2C(S)=C(C#N)C(=O)NC2c2cccs2)cc1 (stereo not given)	-0.2	-4.1	.	2	.	0	.	-0.8	-1	2
COC(=O)N/N=C(C)\C=C\c1ccco1	0.2	0.0	0	14	.	8	-1.7	-1.8	-9	-10
CCOC(=O)N1CCN(C(=S)NC(=O)C2CCCC2)CC1	-0.2	1.4	1	3	-7%	11	?	-3.5	-4	-18
Cc1ccccc1CSCC(=O)NC(=O)NCc1ccco1	3.6	-0.9	-23	9	?	6	0.2	-0.9	.	2
Cc1ccc(CN2[C@@H]3c4ccccc4C[C@@H]3OCCS2(=O)=O)cc1	-1.7	0.0	-2	-57	.	-34	5.9	-3.1	-5	4
COc1ccc(-c2c(C(C)=O)c(C)nc3sc4c(=O)[nH]nnc4c23)cc1	.	0.0	0	.	-2%	.	1.5	-1.1	6	13
CC(C)CC(=O)NC(NC(=O)CC(C)C)c1cccc([N+](=O)[O-])c1	.	0.3	-4	.	-11%	.	1.4	-0.5	-10	-7
COC(=O)C1CN(C(=O)COc2ccc(Cl)cc2C)c2ccccc2O1 (stereo not given)	0.3	-0.9	-8	-13	-3%	-12	-0.2	-8.0	-3	-11
O=C(CSc1nnc(Cc2cccs2)n1C1CC1)NC1CCS(=O)(=O)C1 (stereo not given)	-2.0	0.2	.	6	-7%	3	.	-0.1	-3	.
O=C1NCCN(C(=O)CCc2nnc(-c3ccsc3)o2)C1c1ccc(F)cc1 (stereo not given)	-2.1	-0.2	6	2	-2%	-7	1.0	0.8	-7	-8
O=C(Nc1nc(-c2ccc(Cl)cc2)cs1)C1CCCO1 (stereo not given)	-5.0	0.0	-43	-66	.	-50	7.6	-3.6	-4	9
CCOc1ccc2[nH]c(=O)c(CN(CCO)C(=O)c3ccc(OC)c(OC)c3)cc2c1	.	0.0	20	.	0%	.	?	.	-1	-7
COc1ccc(N2CCN(C(CNC(=O)C(=O)NCc3ccncc3)c3ccco3)CC2)cc1 (stereo not given)	-4.5	-0.2	-1	4	-11%	-4	-3.1	-42	-3	-8
COc1ccc(CCNCC(=O)Nc2ccccc2C(F)(F)F)cc1	-1.9	0.4	6	-16	28%	-15	-1.0	-3.0	-3	-5
COc1ccc(C(=O)/C=C/Nc2c(C)n(C)n(-c3ccccc3)c2=O)c(OC)c1	-1.3	1.0	-10	13	-5%	8	-3.4	3.4	8	-4
Cc1cccn2c(=O)c(C=O)c(N3CCC4(CC3)OCCO4)nc12	.	-0.2	-4	.	.	.	1.4	2.7	-9	-13

Retrieved by structure from the list above (two):
Compound	Ecoli rRNA inh RFP	A1 inh	Calb FLC	Ecoli rRNA inh OD600	Vif TR-FRET	Ecoli rRNA inh	RanGTP-Impb inh	AF4-AF9 inh	Beta cell apopt	T cruzi inh
COc1cc(/C=C2\COC/C(=C\c3cc(OC)c(OC)c(OC)c3)C2=O)cc(OC)c1OC	21	.	12	7	.	-9	-4.4	14	.	11
Cc1ccc(N2C(S)=C(C#N)C(=O)NC2c2cccs2)cc1 (stereo not given)	-0.2	-4.1	.	2	.	0	.	-0.8	-1	2
